Assay outcomes deposited in PubChem by National Center for Advancing Translational Sciences (NCATS).
VDR inhibitor – Inhibitors of the vitamin D receptor (VDR): qHTS | Potency, µM, for inactives: max response, negative = inhibition, most hits filed as inhibitors | VDR-SRC2-3 peptide fluorescence polarization, 2 h | actives 0.93% (n = 400,000); active = well fitted inhibition curve with a large enough effect; inconclusive = small, poorly fitted or top-dose-only effect, or another doubt; inactive = no such curve, though single readings can be large or run the other way; also: series mostly up to about 120 µM
Target sequence (P11473 whole entry, looked up): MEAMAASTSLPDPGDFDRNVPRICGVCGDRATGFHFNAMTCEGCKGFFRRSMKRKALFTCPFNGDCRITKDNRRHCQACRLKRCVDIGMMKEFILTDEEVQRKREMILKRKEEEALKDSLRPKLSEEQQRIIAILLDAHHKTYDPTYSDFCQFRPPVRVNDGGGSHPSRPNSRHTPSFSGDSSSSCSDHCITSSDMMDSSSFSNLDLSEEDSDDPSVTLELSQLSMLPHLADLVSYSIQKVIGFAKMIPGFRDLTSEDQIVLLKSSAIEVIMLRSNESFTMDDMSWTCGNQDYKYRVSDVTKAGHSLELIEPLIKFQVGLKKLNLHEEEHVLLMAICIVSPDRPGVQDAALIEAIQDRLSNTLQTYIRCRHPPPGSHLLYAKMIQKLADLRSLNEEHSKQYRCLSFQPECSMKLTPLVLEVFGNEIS
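Reagent solutions, kept cold and dark, are dispensed first; compounds are then pinned in at 23 nl, plates briefly spun, and incubated 2 h at ambient temperature. Inhibition of VDR–SRC2-3 peptide binding is read by fluorescence polarization.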
The depositor's hits bear a star; ? = inconclusive; & = joins results of further samples. % is scaled to controls: 0 for no effect and ±100 for the full control effect; potency is read from the fitted curve at half-maximal effect. An excerpt (hit frequency here may not be typical).

Start of the data: the first 19 entries, to show the layout:
SMILES	VDR inhibitor
CCc1ccc(N(C(=O)c2csnn2)C(C(=O)NCc2ccccc2)c2ccco2)cc1 (configuration not stated)	0%
CC1(C)CC(=O)C2=C(C1)NC(=O)NC2c1ccc([N+](=O)[O-])cc1 (configuration not stated)	-10%
Cc1ccc(C(=O)CSc2nc(O)cc(=O)[nH]2)cc1C	-5%
CCCN1CCN(C(=O)Cn2c(=O)oc3cc(S(=O)(=O)NCc4ccccc4)ccc32)CC1	-10%
S=c1[nH]nc(Cc2sc(-c3ccccc3)nc2-c2ccccc2)o1	?
CCOc1ccc(-n2cc(-c3ccccc3)c3c(NC4CCCCC4)ncnc32)cc1	-7%
Clc1ccc(-c2cnc3n2CCCCC3)cc1	-5%
COc1ccc(-c2nc(CSCC(=O)NC3CCCc4ccccc43)c(C)o2)cc1OC (configuration not stated)	-6%
CC1Cc2ccccc2N1C(=O)Cn1cc([N+](=O)[O-])cn1 (configuration not stated)	-11%
O=C(c1ccccc1)c1ccc(OCC(O)CN2CCCCC2)cc1 (configuration not stated)	-3%
C=C(C)C1COc2cc3oc(=O)ccc3cc2O1 (configuration not stated)	0%
CCS(=O)(=O)c1ccc(O)c(NC(=O)c2cc(OC)c(OC)c(OC)c2)c1	7%
CN(C)c1ccc(C2NCCS2)cc1 (configuration not stated)	?
Cc1ccc(-n2nc3c(=O)n(CC(=O)NCC(C)c4ccccc4)nc(C)c3c2C)cc1 (configuration not stated)	1%
O=C(COC(=O)c1nc(Cl)ccc1Cl)Nc1ccccc1OC(F)F	-11%
Fc1ccc(Nc2ccnc(-c3ccccc3C(F)(F)F)n2)cc1	45µM*
COc1ccc(CNC(=O)c2ccc3nc(C(C)C)oc3c2)cc1OC	-1%
CN(C)C(CNC(=O)c1ccc(C(=O)c2ccccc2)cc1)c1ccccc1 (configuration not stated)	-4%
O=[N+]([O-])c1cc2c(cc1CN1CCN(CCOCCO)CC1)OCO2	?

The list itself, repeating the preview:
SMILES	VDR inhibitor
CCc1ccc(N(C(=O)c2csnn2)C(C(=O)NCc2ccccc2)c2ccco2)cc1 (configuration not stated)	0%
CC1(C)CC(=O)C2=C(C1)NC(=O)NC2c1ccc([N+](=O)[O-])cc1 (configuration not stated)	-10%
Cc1ccc(C(=O)CSc2nc(O)cc(=O)[nH]2)cc1C	-5%
CCCN1CCN(C(=O)Cn2c(=O)oc3cc(S(=O)(=O)NCc4ccccc4)ccc32)CC1	-10%
S=c1[nH]nc(Cc2sc(-c3ccccc3)nc2-c2ccccc2)o1	?
CCOc1ccc(-n2cc(-c3ccccc3)c3c(NC4CCCCC4)ncnc32)cc1	-7%
Clc1ccc(-c2cnc3n2CCCCC3)cc1	-5%
COc1ccc(-c2nc(CSCC(=O)NC3CCCc4ccccc43)c(C)o2)cc1OC (configuration not stated)	-6%
CC1Cc2ccccc2N1C(=O)Cn1cc([N+](=O)[O-])cn1 (configuration not stated)	-11%
O=C(c1ccccc1)c1ccc(OCC(O)CN2CCCCC2)cc1 (configuration not stated)	-3%
C=C(C)C1COc2cc3oc(=O)ccc3cc2O1 (configuration not stated)	0%
CCS(=O)(=O)c1ccc(O)c(NC(=O)c2cc(OC)c(OC)c(OC)c2)c1	7%
CN(C)c1ccc(C2NCCS2)cc1 (configuration not stated)	?
Cc1ccc(-n2nc3c(=O)n(CC(=O)NCC(C)c4ccccc4)nc(C)c3c2C)cc1 (configuration not stated)	1%
O=C(COC(=O)c1nc(Cl)ccc1Cl)Nc1ccccc1OC(F)F	-11%
Fc1ccc(Nc2ccnc(-c3ccccc3C(F)(F)F)n2)cc1	45µM*
COc1ccc(CNC(=O)c2ccc3nc(C(C)C)oc3c2)cc1OC	-1%
CN(C)C(CNC(=O)c1ccc(C(=O)c2ccccc2)cc1)c1ccccc1 (configuration not stated)	-4%
O=[N+]([O-])c1cc2c(cc1CN1CCN(CCOCCO)CC1)OCO2	?
COc1ccc(C(c2c(C)n(C)n(-c3ccccc3)c2=O)c2c(C)n(C)n(-c3ccccc3)c2=O)cc1OC	3%
COc1cc(NC(=S)Nc2ccccn2)cc(OC)c1OC	4%
CCn1c(=NC(=O)CN2C(=O)CCC2=O)sc2c(OC)ccc(OC)c21	2%
O=[N+]([O-])c1ccc2nnn(O)c2c1	4%
COC(=O)c1ccc(NC(=O)CN(C)S(=O)(=O)c2ccc(OC)c(C)c2)cc1	-11%
CC(C)OCCCn1c(SCC(=O)Nc2ccc(F)cc2)nc2c(sc3ccccc32)c1=O	-1%
Cc1ccn2c(CNC(C)c3cn(C)nc3C)c(C(=O)N3CCCCCC3)nc2c1 (configuration not stated)	-11%
C=CCOc1ccc(/C=N/NC(=O)c2c(C)nc3ccc(Cl)cn23)cc1	1%
Cn1c(CNc2ccc(Cl)cc2)nnc1SCC#N	6%
O=C(NCCc1ccc(Cl)cc1)c1ccc2c(c1)N(Cc1ccc(F)cc1)C(=O)CS2	-2%
CC(=O)c1ccc(NC(=O)Nc2ccc([N+](=O)[O-])cc2)cc1	10%
O=S(CC1CC1(Cl)Cl)CC1CC1(Cl)Cl (configuration not stated)	0%
CCOCCCNCc1ccc(OCc2ccccc2C)c(OC)c1	-18%
CC(C)N(C(=O)NC(=O)Nc1ccc(S(=O)(=O)N2CCCC2)cc1)S(C)(=O)=O	-1%
O=c1c(-c2ccc(Cl)cc2)nc2cncnc2n1Cc1ccccc1Cl	-1%
CCN1C(=O)/C(=C/c2cccs2)N(C)C1=S	3%
CC(=O)Oc1ccc(/C=N/NC(=O)CCSc2ccccc2)cc1	19%
O=C(Nc1ccccc1N1CCOCC1)c1cccc(F)c1	-4%
COc1ccc(Br)cc1CNC(=O)c1ccc(-n2c(C)cc3c2CCC(C)C3)cc1 (configuration not stated)	16%
COc1ccc(C(=O)COC(=O)C(CCSC)NS(=O)(=O)c2ccc(Cl)cc2)cc1 (configuration not stated)	-14%
CNS(=O)(=O)c1cccc(C(=O)OC2CCCCC2=O)c1 (configuration not stated)	6%
Cn1c(NCCN)nc2c1c(=O)n(Cc1ccccc1)c(=O)n2C	13%
Cc1ccnc(N/N=C/c2ccccc2)n1	-6%
O=C(CN1CCN(Cc2ccccc2)CC1)NCc1ccc(Cl)cc1	12%
COc1ccc(C(=O)Nc2ccncc2)cc1OC	-7%
Cc1cc(C)n(-c2nc3ccccc3nc2N2CCN(C(=O)c3ccccc3)CC2)n1	4%
Cc1nnc(NC(=O)C2CCN(C(=O)c3ccsc3)CC2)s1	-6%
O=C(NC1C(=O)NNC1c1ccccc1)c1ccccc1 (configuration not stated)	-4%
Cn1c(=O)c2cc(C(=O)Nc3cccc(C#N)c3)sc2c2ccccc21	10%
Cc1ccc([N+](=O)[O-])c2c1C(N1CC(C)OC(C)C1)C(C)(C)O2 (configuration not stated)	-10%
CCOc1ccc(S(=O)(=O)Nc2nc3ccccc3nc2-n2ccc(=NC(=O)c3cccs3)cc2)cc1	-7%

Reprinted at random: 2 compounds from above, in no set order.
SMILES	VDR inhibitor
Cn1c(=O)c2cc(C(=O)Nc3cccc(C#N)c3)sc2c2ccccc21	10%
Cc1nnc(NC(=O)C2CCN(C(=O)c3ccsc3)CC2)s1	-6%

The listing continues:
SMILES	VDR inhibitor
CSCCC(NC(=O)c1ccc(Cl)cc1Cl)C(=O)OC(C)C(=O)NCc1ccco1 (configuration not stated)	-8%
Cc1noc(C)c1C(=O)OC(C)C(=O)N(C)c1ccccc1 (configuration not stated)	-5%
COCCCn1c(SCC(=O)N(C)C)nnc1-c1ccccc1	-5%
Cc1cccc(NC(=O)Cn2cccc2)c1	7%
S=C(Nc1ccccc1)c1nc2ccccc2s1	2%
C#CCNC(=O)C1=C[C@H](c2csc3ccccc23)C[C@H](OCCCCO)O1	-2%
O=C(CNC1CCCCCC1)Nc1ccccc1N1CCCCC1	6%
Cc1nc(C)c(C(=O)Nc2cccc(F)c2)s1	21%
Cc1ccc(CNS(=O)(=O)c2cn(C)cn2)cc1	14%
Cc1cc(C)c2c(=O)[nH]c(SCC(=O)N3CCCCC3)nc2n1	-8%
O=C(CCCn1cnc([N+](=O)[O-])n1)Nc1cccc(O)c1	9%
CCCS(=O)(=O)N1CCN(CC2CC3C=CC2C3)CC1 (configuration not stated)	-13%
Cc1c2cnn(CC(=O)N3CCN(c4ccccc4)CC3)c(=O)c2c(C)n1Cc1ccc(F)cc1	13%
O=C(Nc1ccc(N2CCCC2)c(Cl)c1)c1ccco1	12%
CCCC(=O)Nc1nc2c(s1)COc1ccccc1-2	-12%
O=C(CN1CCC(NC(=O)c2ccccc2F)CC1)Nc1ccc2c(c1)OCCO2	-1%
Cc1ccc(C2C(C#N)=C3N=C(N)c4ccccc4N3C3=C2C(=O)CCC3)cc1 (configuration not stated)	2%
CNC(=O)CN(c1ccc(C(C)C)cc1)S(C)(=O)=O	3%
CCn1c(=O)c(C)nn2c3ccccc3nc12	4%
Cc1ccc2nc(-c3ccccc3N)[nH]c2c1	?
CCC(=O)NC(C)c1cc(Cl)c2ccccc2c1O (configuration not stated)	-25%
N[C@H](C(=O)O)c1cc(O)cc(O)c1	-8%&7%&10%
COc1ccc2nc(SCC(=O)NC(C)(C)C)[nH]c2c1	1%
Cc1cc(NC(=O)COC(=O)c2c(C)noc2C)ccc1Br	10%
O=C(N/N=C/c1c[nH]c2ccccc12)c1ccc(Br)cc1	-13%
CSc1ncccc1C(=O)OCC(=O)c1cc2ccccc2o1	15%
O=C(NNC(=O)c1cc2cc(Br)ccc2oc1=O)c1ccc(O)cc1	0%
O=C(COC(=O)/C=C/c1cccc(Br)c1)NC1CCCCC1	-1%
COc1ccc(NC(=O)COC(=O)c2ccco2)c([N+](=O)[O-])c1	-5%
Cc1nn(-c2ccccc2)c2sc(C(=O)NCCN3CCOCC3)cc12	-8%
CC1N(C)c2cc(NC(=O)c3ccco3)c(P(=O)(Nc3ccc([N+](=O)[O-])cc3)N3CCOCC3)cc2C1(C)C (configuration not stated)	6%
CC(=O)NC(CC(=O)Nc1ccc2c(c1)OCCO2)c1ccccc1 (configuration not stated)	-7%
CCSc1ccccc1C(=O)NCc1ccc2c(c1)OCO2	-1%
Cc1ccc(NC(=O)CN2C(=O)NC(Cc3ccccc3)C2=O)c(Br)c1 (configuration not stated)	-13%
COc1ccccc1NC(=O)c1nn(C)c(C(=O)Nc2ccccc2OC)c1[N+](=O)[O-]	-3%
O=C(NCCCc1ccccc1)c1ccc(-n2cncn2)c([N+](=O)[O-])c1	-3%
CCN(C(=O)COC(=O)c1c(C)nn(-c2ccccc2)c1Cl)c1c(N)n(Cc2ccccc2)c(=O)[nH]c1=O	22%
Cc1ccc2nc(NC(=O)CN(C)S(=O)(=O)c3ccc(Br)s3)sc2c1	0%
COc1cccc(C(=O)NCCS(=O)(=O)NC2CCCC2)c1	-15%
Cc1ccc(NC(=O)c2sc(Cl)nc2-c2ccccc2)cc1C	14%
CC(C)c1cc(Br)ccc1OCCN1C(=O)NC(C)(C)C1=O	-1%
O=C(CN1c2cccc3cccc(c23)S1(=O)=O)N1CCN(c2ccccc2)CC1	-9%
CC(=O)Nc1ccc(S(=O)(=O)NNC(=S)NCC2CCCO2)cc1 (configuration not stated)	-2%
O=C1CSC(c2ccc([N+](=O)[O-])cc2)N1c1ccccc1 (configuration not stated)	8%
O=C(NCCCN1CCN(c2ccccc2F)CC1)C1CCN(S(=O)(=O)c2cccs2)CC1	-3%
CSCCC(NC(=O)C12CC3CC(CC(C3)C1)C2)C(=O)OCC(=O)c1ccc(Cl)cc1 (configuration not stated)	14%
N#Cc1c(C(F)(F)F)cc(-c2ccccc2)nc1SCCN1CCOCC1	-13%
CC(C)OC(=O)CC1C(=O)NCCN1C(=S)NC(=O)c1ccccc1 (configuration not stated)	-10%
O=C(NCC1CCCO1)C(=O)N/N=C/c1ccc(OCc2ccccc2Cl)cc1 (configuration not stated)	-14%
Cc1ccc(Sc2c(C(=O)NCc3cccc(F)c3)[nH]c3ccccc23)cc1	21%

Continued:
SMILES	VDR inhibitor
O=C1CCCCN1CCC(=O)N1CCCC(Nc2ccc(F)c(F)c2)C1 (configuration not stated)	-1%
C=CC[n+]1c(-c2ccc(C)cc2)csc1NNC(=O)Nc1ccccc1	-6%
O=C(C1=COCCO1)N1CCN(S(=O)(=O)c2cccc(F)c2)CC1	22%
O=C(NCC1CCN(C(=O)c2ccc([N+](=O)[O-])cc2)CC1)C(=O)Nc1ccccc1	17%
COCCNC(=S)N/N=C(\C)c1ccc(OC)cc1	11%
CCC(C)(C)n1nnnc1C(c1cccc(C#N)c1)N1CCN(c2cc(C)ccc2C)CC1 (configuration not stated)	9%
NC(=O)CSC1=Nc2ccccc2C2=NC(CCC(=O)NCc3ccc(F)cc3)C(=O)N12 (configuration not stated)	1%
CCCCN(C(=O)CSCC(=O)Nc1cccc(C)c1)c1c(N)n(CCCC)c(=O)[nH]c1=O	-7%
COc1ccc(/C=N/Nc2cc(=O)n(C)c(=O)n2C)cc1OC	?
CN(C)S(=O)(=O)c1ccc(C(=O)NC2CC(=O)N(c3ccc4c(c3)OCCO4)C2)cc1 (configuration not stated)	6%
Cc1cc(=O)oc2cc(OC(C)C(=O)NC3(C#N)CCCCC3)ccc12 (configuration not stated)	-5%
COc1ccc(C2C(C(=O)c3ccco3)=C(O)C(=O)N2c2nnc(C)s2)cc1 (configuration not stated)	-9%
Cc1nc(NC(=O)C2CC2)sc1C(=O)Nc1ccc(Br)cc1	-8%
CC(=O)c1cccc(NC(=O)Nc2ccc3c(c2)CCC3)c1	9%
C=C(C)CSc1nnc(-c2cccc(Cl)c2)n1N	9%
CCOc1cnn(Cc2ccccc2)c(=O)c1SCc1ccccc1	-7%
CN(C)S(=O)(=O)Nc1ccccn1	-36%
COc1ccc(C(=O)Nn2cnc3ccccc3c2=O)c(OC)c1	-1%
CCn1c2ccccc2c2nnc(SCC(=O)OCN3C(=O)c4ccccc4C3=O)nc21	10%
COc1ccc(N(C(=O)Cn2nnc3ccccc32)C(C(=O)NCc2ccco2)c2cccnc2)cc1 (configuration not stated)	4%
